Screening data as filed in PubChem.
HCMV NEC inh = inhibitors of HCMV UL50-UL53 nuclear egress complex interaction; HTRF UL50-UL53 interaction, normalized percent inhibition; inhibition, % (no concentration beside the values); 190,000 compounds, 0.15% hits;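 active = both replicates at 50% or more, plus weaker picks with an unusually low signal ratio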;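 also: stock transfer was 100 nL into about 20 µL; 0% = negative control wells and 100% = wells with untagged competitor protein; inactives centre near -12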
Sa growth inh = blocks Staphylococcus aureus growth; S. aureus RN4220 growth, OD600, 20 h, 42 °C; active compounds read low; relative growth, % (no concentration beside the values); 170,000 compounds, 0.53% hits; AID 720641;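 active = growth at 42 °C up to 50% and 20 or more points under that at 30 °C, or under 10% at both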;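 also: 300 nL library stock went into each well; scaled to the means of positive and negative controls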
GIV-Gai inh = inhibitors of GIV GBA-motif binding to rat Galpha-i3. percent of control (FP), % (concentration not given with the values). 210,000 compounds, 0.42% hits. Galpha-i3/FITC-GIV peptide fluorescence polarization, 90 min; active compounds read low; scaled: aluminum fluoride 0%, vehicle 100%. P08753;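 active = replicate mean at 85% of control or lower, very high polarization wells dropped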;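 also: wells of about 15 µL received 100 nL stock; the first replicate is given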
Target sequence (P08753 whole entry, looked up): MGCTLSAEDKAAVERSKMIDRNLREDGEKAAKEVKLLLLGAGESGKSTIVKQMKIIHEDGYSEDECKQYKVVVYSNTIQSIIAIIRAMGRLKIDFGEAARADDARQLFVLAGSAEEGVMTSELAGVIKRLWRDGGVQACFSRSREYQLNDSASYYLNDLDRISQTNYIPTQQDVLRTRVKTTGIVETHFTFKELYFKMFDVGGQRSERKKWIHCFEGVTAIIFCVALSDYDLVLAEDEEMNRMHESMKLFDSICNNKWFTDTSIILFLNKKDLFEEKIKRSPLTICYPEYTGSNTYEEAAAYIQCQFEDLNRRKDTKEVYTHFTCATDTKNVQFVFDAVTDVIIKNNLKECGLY
Sa growth inh second temp = recorded beside Sa growth inh, whose call it bears; relative growth, %; measured here: growth at 30 °C;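 optical density after 20 h as mean of two plates; 100% = untreated growth and lower means inhibition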
* = called active by the depositor; x = not tested or not shown; & = joins results of further samples.

SMILES	HCMV NEC inh	Sa growth inh	Sa growth inh second temp	GIV-Gai inh
Cn1c(=O)[nH]c(=O)c2c1nc(Sc1ccccc1)n2Cc1ccccc1	-26	107	102	102
COc1cc(CNCCO)c(Br)cc1OCC(N)=O	-19	104	107	105
COc1ccc(C(=O)N2N=C(c3c(-c4ccccc4)c4cc(Br)ccc4[nH]c3=O)CC2c2ccco2)cc1 (stereo unspecified)	-14	x	x	105
NNC(=O)Cn1nnc(N2CCOCC2)n1	-21	93	92	103
CCCn1nnc2cc(S(=O)(=O)N3CCCC(C(=O)NCc4cccc(OC)c4)C3)ccc21 (stereo unspecified)	-12	x	x	104
FC(F)(F)c1cnc(CN2CCSCC2)c(Cl)c1	-8	108	98	97
N/C(=N\c1nc(=O)c2ccccc2s1)NC(=O)Nc1ccc(F)cc1	x	121	119	106
COC(=O)CC(C1=C(O)CCCC1=O)C1=C(O)CCCC1=O	-17	86	87	103
Cc1ccc(C2CC(=O)N(c3ccc(C(C)C)cc3)C(=O)C2)cc1	-36	x	x	100
COc1ccc(NC(=O)c2sc3ncnc(N4CCN(C)CC4)c3c2C)cc1Cl	-57	x	x	103
O=S1(=O)NC(c2cccc(Br)c2)Nc2ccccc21 (stereo unspecified)	x	79	78	103
CC(C)(C)c1ccc(O)c(C(C)(C)C)c1O	-13	38	66	x
Cc1oc2c(cc(NS(=O)(=O)c3ccc(C(C)C)cc3)c3ccccc32)c1C(=O)O	-13	39	42	134
COc1ccc(Cn2cnc3c4ccccc4n(CC(=O)Nc4cc(C)cc(C)c4)c3c2=O)cc1	-32	x	x	105
S=C(Nc1ccccn1)Nc1ccccn1	-34	96	76	104
COc1ccc(-c2cc(C(=O)N(C)c3cccc(C)c3)no2)cc1S(=O)(=O)N1CCC(C)CC1	-15	107	93	105
N#CCSc1ccccc1C(=O)O	-22	84	89	x
CCOC(=O)c1sc2ncn3c(-c4cccc(OC)c4)nnc3c2c1C	-20	x	x	100
CCCn1c(=O)[nH]c2cc(-c3noc(/C=C/c4ccc(C)cc4)n3)ccc21	-38	x	x	103
Nc1cc(-c2ccccc2)nn1S(=O)(=O)c1cccc2nsnc12	-27	134	92	108
Cn1c(=S)[nH]c2sccc2c1=O	-6	71	56	x
COc1ccc(-c2nc(SCC(=O)Oc3ccc(C)cc3C)n3[nH]c(=O)cc3n2)cc1	-25	x	x	105
O=C(NC1CCCCC1)C(Cc1ccccc1)N1C(=O)C2C3C=CC(C3)C2C1=O (stereo unspecified)	-5	100	78	102
COC(=O)c1ccccc1NC(=O)c1c(-c2ccc(OC)cc2)oc2ccc(OC)cc12	1	x	x	105
Cc1ccc(CNC(=O)Cn2c(=O)n(-c3ccc(C)cc3)c(=O)c3c2c2cc(C)ccc2n3C)cc1	x	98	96	112
CC(C)(C)C(=O)c1sc2c(c1N)c(=O)[nH]c(=O)n2C1CCCCC1	-1	86	100	x
Cc1ccc(-c2ccccc2)n1-c1ccc(O)cc1	-33	37	25	104
COC(=O)C1CCN1C1CCCCC1 (stereo unspecified)	-30	100	86	x
Cc1cc(C)cc(N(C(=O)C(C)(C)C)C2C=CS(=O)(=O)C2)c1 (stereo unspecified)	-24	86	88	103
CCOC(=O)CSc1nnc(-c2ccc(OC)cc2)o1	-12	100	86	107
Cc1nc2nc3c(c(Nc4ccc(F)cc4)n2n1)CCCC3	-15	x	x	108
COC(=O)/C=C1/NCCCNC1=O	-7	97	85	101
Cc1cc(SCCN2CCOCC2)nc2ccccc12	-29	103	90	103
COc1cc(NC(=O)c2c(C)nn(-c3ccc(F)cc3)c2-n2cccc2)cc(OC)c1	x	104	92	108
CC(=O)OCc1cc(-c2nn(C)c(=O)c3ccccc23)ccc1C	-1	96	87	102
Cc1cc(C)c2c(c1)CC(C)(C)/C(=N/NC(=O)CC#N)C2=O	-45	102	98	108
O=C(COc1ccccc1)NC(=S)Nc1ccc2[nH]c(=O)[nH]c2c1	x	111	84	96
Cc1sc(NC(=O)c2cc3cc(Br)ccc3oc2=O)nc1-c1ccccc1	-13	x	x	102
O=C(O)CNC(=O)CSc1ccc(Cl)cc1	-10	90	86	105
O=C(NCc1cc(=O)n2nc(-c3ccccc3)sc2n1)c1ccccc1	-25	x	x	99
CC(=O)c1ccc(NC(=O)c2nn(C)c3c2COc2ccccc2-3)cc1	-14	109	98	94
CCn1cc(SCC(=O)Nc2nc3ccccc3s2)c2ccccc21	-25	87	81	105
CCN(C(=O)c1cccc(N2C(=O)C(C)(C)CS2(=O)=O)c1)C1CCS(=O)(=O)C1 (stereo unspecified)	2	x	x	107
Nc1ccc2c(c1)N1CCN=C1S2	-11	97	91	104
CCOc1ccc(CNC(=O)CCS(=O)(=O)c2ccc3c(c2)NC(=O)CO3)cc1OC	6	x	x	104
CCCCCN[C@H]1CS(=O)(=O)C[C@@H]1S(=O)(=O)c1cccs1	-18	x	x	97
O=C(O)c1ccc(NS(=O)(=O)c2ccc(N3C(=O)CCC3=O)cc2)cc1	8	93	81	95
N=C(N)SCC1CN=C(N)S1 (stereo unspecified)	2&-54	124&102	99&109	101&96

Compound profiles (already shown):
Results for O=C(NCc1cc(=O)n2nc(-c3ccccc3)sc2n1)c1ccccc1 = HCMV NEC inh = -25; Sa growth inh = x; Sa growth inh second temp = x; GIV-Gai inh = 99
Results for O=C(COc1ccccc1)NC(=S)Nc1ccc2[nH]c(=O)[nH]c2c1 = HCMV NEC inh = x; Sa growth inh = 111; Sa growth inh second temp = 84; GIV-Gai inh = 96
Results for O=C(O)CNC(=O)CSc1ccc(Cl)cc1 = HCMV NEC inh = -10; Sa growth inh = 90; Sa growth inh second temp = 86; GIV-Gai inh = 105

(more compounds)
SMILES	HCMV NEC inh	Sa growth inh	Sa growth inh second temp	GIV-Gai inh
Cc1c(C(=O)Nc2ccccc2)cnn1-c1ccc(F)cc1	-10	108	84	105
Cn1cnc2c(=O)oc3ccc(S(=O)(=O)N4CCN(c5cccc(C(F)(F)F)c5)CC4)cc3c21	x	90	99	102
Cc1ccc2nc(N3CCN(C(=O)C4CC4)CC3)c(-c3noc(-c4ccccc4)n3)cc2c1	-24	x	x	103
CCCN(CCC)Cc1c(O)ccc2c(=O)c(-c3ccccc3)coc12	x	124	89	99
Cc1nn(-c2ccccc2)c2c1-c1sc(C(=O)NCCN(C)Cc3ccccc3)cc1CC2	-38	x	x	101
COc1ccccc1OCCSc1nc2ccc(Br)cc2[nH]1	-7	x	x	106
COc1ccc(F)cc1S(=O)(=O)Nc1ccc(-c2ccc(N3CCCC3)nn2)cc1	-45	x	x	105
Cc1ccc(C)c(CNC(=O)c2cc(C)nc3c2c(=O)n(C)c(=O)n3C)c1	-25	x	x	102
CC(Sc1nncn1C)C(=O)Nc1ccc(Cl)cc1 (stereo unspecified)	0	109	107	x
Cc1ccccc1NC(=O)c1oc2c(c1C)-c1nn(Cc3cccc(Cl)c3)cc1CC2	-12	118	98	100
Cc1noc(C(=O)Nc2sc3c(c2C#N)CCC3)c1Cl	-8	79	77	99
COc1cccc(-n2cc(C(=O)OCc3ccc(Cl)cc3)c3ccccc3c2=O)c1	x	132	83	105
O=C(O)CCCC(=O)N1CCN(S(=O)(=O)c2ccc(Br)s2)CC1	11	97	100	106
CCC12CN3CC(C)(CN(C1)C3c1ccc(O)cc1O)C2=O (stereo unspecified)	-33	91	87	102
O=C1CSC(=S)N1c1ccccc1	-3	93	59	105
Cc1ccc(Sc2ccc(CO)o2)cc1	2	120	108	97
Cc1nc(Cc2nnc(SCC(=O)N3c4ccccc4Sc4ccccc43)o2)cs1	4	95	96	x
CC1CCC(N2C(=O)c3cc4sccc4n3CC2(C)C(=O)NC2CCCCC2)CC1 (stereo unspecified)	-9	x	x	99
O=C1S/C(=C\c2ccco2)C(=O)N1c1ccccc1	-5	106	94	x
Cc1cc(C(=O)NCc2ccccc2Cl)c2c(C)nn(-c3ccccc3)c2n1	x	93	96	106
CCOC(=O)c1c(N)n(C2CCCCC2)c2nc3ccccc3nc12	x	99	88	102
C=CCN1C(=O)CS/C1=N\S(=O)(=O)c1ccc(Cl)s1	-11	95	89	x
CN(C(=O)/C=C\C(=O)O)C1CCS(=O)(=O)C1 (stereo unspecified)	-7	94	91	109
CC1=C(C(=O)Nc2ccccn2)C(c2cc([N+](=O)[O-])ccc2Cl)C2=C(CC(C)(C)CC2=O)N1 (stereo unspecified)	-41	x	x	100
Cc1onc(-c2ccccc2)c1-c1ccnn1C(=O)NC(C)C	-1	94	105	98
CCOc1cc2c(cc1OCC)C(CC(=O)OC)N(C(=O)Nc1cc(OC)ccc1OC)CC2 (stereo unspecified)	x	92	89	101
COc1ccccc1N(C)S(=O)(=O)c1ccc(Cl)c(C(=O)O)c1	-13	101	97	x
CCOC(=O)CSCCOc1ccc(/C=C2/C(=O)NC(=O)N(c3cccc(C)c3)C2=O)cc1OC	-13	x	x	108
Cc1ccc(CNS(=O)(=O)c2cccs2)n1C	17	93	79	97
Nc1nc(N)nc(N2C(=O)c3ccccc3C2=O)n1	-40	96	87	102
O=C(COc1ccccc1)NCCc1csc2nc(-c3ccccc3F)nn12	-6	x	x	99
COc1ccc(CCN(C)S(=O)(=O)c2ccc(Cl)s2)cc1OC	-17	108	91	x
CCCCN1C(=O)/C(=C\c2ccc3c(c2)OCO3)SC1=S	-4	118	81	102
CN(CC(=O)Nc1cc(S(C)(=O)=O)ccc1Cl)Cc1nc2ccccc2c(=O)[nH]1	-11	99	96	x
c1ccc(CN(Cc2ccccc2)c2nn[nH]n2)cc1	3	x	x	104
COC(=O)c1cc2sccc2n1C	x	105	88	113
COc1cc(C2CC(=O)C3=C(C2)Nc2onc(C)c2C3c2ccc(O)cc2)ccc1O (stereo unspecified)	-14	x	x	104
O=C(CC12CC3CC(CC(C3)C1)C2)Nc1c(F)cccc1F	0	104	99	107
CCS(=O)(=O)Nc1cc2c3c(n(S(=O)(=O)CC)c2cc1OC)CCCC3=O	-5	106	91	100
Cc1cc(C)c2sc(N(Cc3cccnc3)C(=O)CCOc3ccccc3)nc2c1	x	114	103	107
CCOc1ccc(-c2ccnc3c(C(=O)O)cnn23)cc1	-90	x	x	101
C=CCNC(=O)c1ccc(C)c(S(=O)(=O)N(CC)CC)c1	10	104	97	x
NC(=O)CSc1ccccc1NC(=O)c1ccc(=O)[nH]c1	-23	100	104	x
FC(F)(F)COc1ccc(-c2nc(-c3ccc(Cl)cc3)no2)cn1	-14	101	99	109
NC(=O)NC(=O)CC1Nc2ccccc2NC1=O (stereo unspecified)	x	72	98	114
N#Cc1ccc(OCC(=O)N2CCCc3ccccc32)cc1	15	113	98	x
CC(=O)NC(Nc1ccc(S(N)(=O)=O)cc1)(C(F)(F)F)C(F)(F)F	-19	93	87	100
CSc1nc(C)c(Oc2ccccc2)c(=O)n1C	0	115	77	107
CC(=O)Nc1c(C)nn(-c2ccccc2)c1N1CCC(C(=O)NCc2ccc(F)cc2)CC1	x	82	89	100
CCn1c(-c2ccc(Cl)cc2)csc1=Nc1ccc(O)cc1	-2	138	96	x
Cc1cc(-c2nc(-c3ccccc3F)no2)n[nH]1	-16	x	x	104
CCc1cnc2c(c1SCC(=O)NCc1ccc(C)cc1)c(=O)n(C)c(=O)n2C	x	120	91	105
CCOC(=O)c1ccccc1NC(=O)Cn1cc(C(=O)c2cccc(OC)c2)c(=O)c2ccc(C)nc21	1	74	87	108&102
CCOc1ccc(-n2c(=O)c3sccc3n(CC(=O)Nc3cccc(C(F)(F)F)c3)c2=O)cc1	x	114	91	104
COc1cccc(CNC(=O)Cn2nc(C)c3sc4ccccc4c3c2=O)c1OC	2	97	96	98
CCOC(=O)c1ccccc1NC(=O)N1CCn2c(C)ccc2C1CC (stereo unspecified)	-20	x	x	107
Cc1ccccc1OCCCn1cnc2ccccc21	6	103	93	x
CN(C)S(=O)(=O)N1CCC(n2cnc3cccnc32)CC1	x	105	98	104
Cc1ccccc1CSc1nc2ccncc2n1Cc1ccccc1	-13	x	x	99
O=C(CN1C(=O)COc2ccccc21)Nc1ccc2nc(NS(=O)(=O)c3ccccc3)sc2c1	-22	x	x	104
Other records follow.
SMILES	HCMV NEC inh	Sa growth inh	Sa growth inh second temp	GIV-Gai inh
CS(=O)(=O)c1ccc(C(=O)NC2CCCCC2)cc1	-18	96	91	x
CNC(=O)N1c2ccccc2NC(=O)CC1C (stereo unspecified)	-5	108	99	109
COC(=O)c1cn(NC(=O)CC2CCCCC2)c(=O)c2ccccc12	-13	109	95	97
COc1cccc(CNC(=O)c2ccc(CN3CC(=O)N4CCCCC4C3=O)cc2)c1 (stereo unspecified)	x	102	79	106
Oc1ccccc1-n1cccc1	-9	113	93	x
Cc1cc(C)nc(SCC(=O)Nc2ccc(N3CCOCC3)cc2)n1	-5	98	88	97

Retrieved one by one from the entries so far, 4 records:
SMILES	HCMV NEC inh	Sa growth inh	Sa growth inh second temp	GIV-Gai inh
Cc1cc(C)nc(SCC(=O)Nc2ccc(N3CCOCC3)cc2)n1	-5	98	88	97
Oc1ccccc1-n1cccc1	-9	113	93	x
CS(=O)(=O)c1ccc(C(=O)NC2CCCCC2)cc1	-18	96	91	x
COc1cccc(CNC(=O)c2ccc(CN3CC(=O)N4CCCCC4C3=O)cc2)c1 (stereo unspecified)	x	102	79	106
